# Mtb hypoxia inh: PubChem AID 1159583; M. tuberculosis hypoxia-regulated fluorescent reporter, fluorescence; fluorescence inhibition, % (concentration not given with the values); actives 0.1% (n = 300,000);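 active means 35 to 45% if threefold the growth effect, above 45% if 1.5-fold the growth effect; inactive means the rest, general growth blockers included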;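 further: wells of about 50 µL received 100 nL stock; 0% = vehicle wells and 100% = reference inhibitor wells; whole bacteria with a GFP reporter of the hypoxia response; strong numbers were not always called active; many hits fall short of the cut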
# Sa RN4220 lethal: growth inhibition of S. aureus RN4220, primary screen, OD600 | AID 1259311, 2017 | actives 0.33% (n = 330,000) | 16 h | inhibition, % (no concentration beside the values);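 active means z-score of -3 or lower and OD600 up to 0.18 on both plates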;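 further: plate controls were untreated cells for no effect and reference antibiotic for full effect; stock transfer was 100 nL into about 80 µL; one replicate is shown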
# PrP 5UTR inh: inhibition of PrP 5' UTR reporter expression | cell-based PrP 5' UTR mRNA reporter, plate reader | actives 0.35% (n = 340,000) | inhibition, % (concentration not given with the values);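 active means every replicate at 50% or more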;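 further: 0 = median of the neutral control wells; tested in H4 reporter cells; numbers are from one replicate; inactives centre near -14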
# ugtP null kill: growth inhibition of ugtP-null S. aureus, primary screen, RN4220 ugtP deletion, OD600; 16 h; some inactives read as strong as hits; AID 1259309, 2017; growth inhibition, % (concentration not given with the values); actives 0.54% (n = 330,000);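 active means z-score under -3 and OD600 up to 0.15 on both plates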;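 further: plate controls were untreated wells for no effect and antibiotic for full effect; wells of about 80 µL received 100 nL stock; the first replicate is given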
# Autofluor counter: counter-screen for toxin protease inhibitors: compound fluorescence. fluorescence intensity (test concentration not listed). AID 624483. actives 3.1% (n = 360,000). compound autofluorescence counterscreen, microsphere flow cytometry; hits give high values;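 active means at least 3 SD above the mean of all compounds, about 16000 in these data; inconclusive means too few beads counted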;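 further: 100 nL of 1 mM stock went into each well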
# BJeLR lethal: MLPCN primary cell-based screen for lethality selective to Ras in HRASV12 cells; inhibition, % (no concentration beside the values); actives 0.17% (n = 300,000); BJeLR (HRASV12) viability, CellTiter-Glo ATP luminescence, 48 h; reference of the scale not given here;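 active means replicate mean above 50%; inconclusive means above 50% but judged a plate artefact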;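 further: 50 nL library stock added to about 25 µL; numbers are from one replicate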
# Mtb hypoxia inh growth: also measured in Mtb hypoxia inh; calls as there; growth inhibition, %; measured here: M. tuberculosis growth (absorbance);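 0% = vehicle and 100% = reference antibiotic; read after six days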
# * marks the source's active call; other numbers are inactive results; ? = inconclusive; / = not tested or not shown. Compounds as they come; overall some 4% were active at least once.
entry	SMILES	Mtb hypoxia inh	Mtb hypoxia inh growth	Sa RN4220 lethal	PrP 5UTR inh
1	CCc1cc(C(=O)N(CC)CC(=O)Nc2ccc(OC)cc2)sc1C	4	0	2.3	-9
2	O=C(CCCSc1ccccc1)Nc1nc(-c2ccco2)c(-c2ccco2)s1	8	-3	13	-22
3	C[C@H](NC(=O)[C@@H]1CSC2c3ccccc3C(=O)N21)C(=O)NC1CCCC1 (some centres not stated)	9	6	1.9	0
4	CC(C)C[C@H](NC(=O)c1nc[nH]c1C(=O)N1CCc2ccccc2C1)C(=O)OCc1ccccc1	/	/	/	2
5	Cc1ccccc1S(=O)(=O)/N=C(/Nc1c(C)n(C)n(-c2ccccc2)c1=O)c1ccccc1	6	6	4.0	-16
6	CC(C)(C)C1CCC(=NNC(=O)C2COc3ccccc3O2)CC1 (configuration not stated)	5	3	2.6	-11
7	Cc1ccc2c(c1)N(CC(=O)N1CCCCCC1)C(=O)c1cccnc1O2	12	1	-0.4	-8
8	COc1cc(C=NNC(N)=S)ccc1OCc1ccc(C)cc1	/	/	2.4	/
9	CC(C)Oc1cccc(C(=O)C2CCCN(C(=O)CCc3cnn(C)c3)C2)c1 (configuration not stated)	0	0	5.6	-14
10	CC1CN(C(=O)CCNS(=O)(=O)c2ccc(Br)cc2)CC(C)O1 (configuration not stated)	0	0	4.6	-4

entry	ugtP null kill	Autofluor counter	BJeLR lethal
1	5	4131	/
2	3	11405	-5
3	2	7025	3
4	/	3945	6
5	2	4141	0
6	7	7923	/
7	3	6643	-7
8	4	/	/
9	8	4874	4
10	4	/	-2

# An excerpt of these results, with tabs.
entry	SMILES	Mtb hypoxia inh	Mtb hypoxia inh growth	Sa RN4220 lethal	PrP 5UTR inh	ugtP null kill	Autofluor counter	BJeLR lethal
4	CC(C)C[C@H](NC(=O)c1nc[nH]c1C(=O)N1CCc2ccccc2C1)C(=O)OCc1ccccc1	/	/	/	2	/	3945	6
2	O=C(CCCSc1ccccc1)Nc1nc(-c2ccco2)c(-c2ccco2)s1	8	-3	13	-22	3	11405	-5
7	Cc1ccc2c(c1)N(CC(=O)N1CCCCCC1)C(=O)c1cccnc1O2	12	1	-0.4	-8	3	6643	-7
6	CC(C)(C)C1CCC(=NNC(=O)C2COc3ccccc3O2)CC1 (configuration not stated)	5	3	2.6	-11	7	7923	/
1	CCc1cc(C(=O)N(CC)CC(=O)Nc2ccc(OC)cc2)sc1C	4	0	2.3	-9	5	4131	/
5	Cc1ccccc1S(=O)(=O)/N=C(/Nc1c(C)n(C)n(-c2ccccc2)c1=O)c1ccccc1	6	6	4.0	-16	2	4141	0
3	C[C@H](NC(=O)[C@@H]1CSC2c3ccccc3C(=O)N21)C(=O)NC1CCCC1 (some centres not stated)	9	6	1.9	0	2	7025	3

# Remaining list, next part.
entry	SMILES	Mtb hypoxia inh	Mtb hypoxia inh growth	Sa RN4220 lethal	PrP 5UTR inh
11	[S-]C(=Nc1ccc(Cl)cc1)N[n+]1ccccc1	-4	0	3.8	-13
12	O=C(NCc1ccc(F)cc1)C1CCN(S(=O)(=O)c2ccc(Br)s2)CC1	6	8	-1.9	-24
13	CCOC(=O)c1cc(NC(=O)C2C3C=CC(O3)C2C(=O)O)cc(C(=O)OCC)c1 (configuration not stated)	6	-6	1.1	-12
14	O=C(N=C1c2ccccc2CN1c1ccc(F)cc1)c1ccc(Cl)nc1	11	5	3.2	-17
15	CC1(C)OC(=O)C(=C2CCCN2)C(=O)O1	5	5	-8.9	-25
16	COCCOC(=O)C1=C(C)NC2=C(C(=O)CC(C)(C)C2)C1c1ccc2c(c1)OCO2 (configuration not stated)	18	8	1.8	-3
17	Cc1ccc(-c2cc(C(=O)NCc3cnn(C)c3C)c3cc(Br)ccc3n2)cc1	/	/	-2.7	-35
18	Cc1ccc2nc(Nc3ncc4c(n3)CC(C)(C)CC4=O)nc(C)c2c1	9	5	1.6	-21
19	CCOC(=O)c1cc2c(=O)[nH]ccc2nc1C	18	12	5.7	-29
20	CCOC(=O)CSc1nc2c(c(=O)n(C)c(=O)n2C)n1CCCc1ccccc1	15	14	-4.2	-9

entry	ugtP null kill	Autofluor counter	BJeLR lethal
11	-2	11222	-11
12	-1	3607	-6
13	0	3494	-1
14	-12	8914	9
15	-1	3274	-13
16	8	10377	-8
17	3	4188	-10
18	5	4608	8
19	8	6422	-2
20	-1	3468	0

# Remaining list, next part:
entry	SMILES	Mtb hypoxia inh	Mtb hypoxia inh growth	Sa RN4220 lethal	PrP 5UTR inh
21	COc1ccc(C(=O)Nc2ccc(S(=O)(=O)NC(C)=O)cc2)cc1	12	8	8.5	-10
22	CCCCC/C=N/NC(=O)c1[nH]c2ccc([N+](=O)[O-])cc2c1C	/	/	/	-28
23	COC(=O)c1cc(=O)n(Cc2ccccc2)c(=NCc2ccccc2)s1	-1	7	6.3	/
24	COc1cccc(N2CC(NS(=O)(=O)c3ccc4ccccc4c3)CC2=O)c1 (configuration not stated)	5	-3	2.2	-11
25	CCCCCNC(=O)Cc1ccc(OC)cc1	/	/	3.6	-23
26	O=C(Nc1ccc(Cl)cc1)C1CCC(=O)N1Cc1ccccc1Cl (configuration not stated)	/	/	3.0	-9
27	O=C(Cc1cccs1)NCCn1ccc2ccccc21	1	7	13	-4
28	Cc1cccc(NC(=O)CSc2nccn2Cc2ccco2)c1C	-1	-8	1.7	-1
29	N#Cc1c(NC(=O)CSc2nnc(-c3ccccc3)o2)sc2c1CCCC2	11	-1	7.8	-3
30	CSc1ccccc1OCc1cc(C(=O)NC(C)Cc2cccc(C)n2)no1 (configuration not stated)	1	6	-6.5	-34

entry	ugtP null kill	Autofluor counter	BJeLR lethal
21	2	10338	-2
22	/	3995	2
23	1	/	3
24	3	/	-11
25	4	4879	-2
26	-1	3482	-7
27	6	5058	-8
28	6	3938	1
29	4	8083	-1
30	-5	7924	2

# Next section.
entry	SMILES	Mtb hypoxia inh	Mtb hypoxia inh growth	Sa RN4220 lethal	PrP 5UTR inh
31	COc1ccc(C2(C)NC(=O)N(CC(=O)c3cc(C)n(C4CC4)c3C)C2=O)cc1 (configuration not stated)	-2	5	-0.4	-19
32	COc1cc(/C=C/C(=O)OCC(=O)N2CCCc3ccccc32)ccc1OCC#N	3	-11	2.3	-3
33	CC(/C=C/c1ccccc1)=N/NC(=O)c1cccc(Br)c1	/	/	/	1
34	O=S(=O)(c1cc(Br)ccc1Br)N1CCCCCC1	-11	-1	10	9
35	CCOC(=O)c1nc(C)[nH]c1C(=O)OCC	7	3	3.2	-15
36	COc1ccccc1NS(=O)(=O)c1ccc(C)c(C(=O)NCCCN2CCCC2=O)c1	3	-7	5.6	-17
37	O=C(Nc1ccc(-n2cnnn2)cc1)C1CCCN1C(=O)NC1CCCCC1 (configuration not stated)	6	16	0.3	-2
38	COCCn1c(SCC(=O)c2ccc3c(c2)OCCO3)nnc1-c1ccoc1C	/	/	1.7	-24
39	O=C(NCc1cccs1)C1CCN(S(=O)(=O)c2cccc3nsnc23)CC1	/	/	-2.6	-17
40	CCOc1cc(N2CCOCC2)c(OCC)cc1NC(=O)COC(=O)C1CCCN1S(=O)(=O)c1ccccc1F (configuration not stated)	15	16	4.8	-13

entry	ugtP null kill	Autofluor counter	BJeLR lethal
31	2	8861	/
32	6	2935	/
33	/	2528	5
34	10	3026	-6
35	1	22419*	-2
36	15	3917	-1
37	3	6999	5
38	1	4657	-1
39	-2	4854	-1
40	3	7127	/

# Next part
entry	SMILES	Mtb hypoxia inh	Mtb hypoxia inh growth	Sa RN4220 lethal	PrP 5UTR inh
41	Cn1c(=O)c2c(ncn2CC(=O)Nc2ccc(Cl)cc2Cl)n(C)c1=O	14	3	-3.5	-11
42	COc1ccc(-c2ccnc3[nH]n(-c4ccccc4)c(=O)c23)cc1	17	5	-7.1	-22
43	c1ccc(Cn2cc(CN3CCCCO3)c(-c3ccc4c(c3)OCO4)n2)cc1	4	1	-1.1	5
44	CC(=O)NS(=O)(=O)c1ccc(NC(=O)CC23CC4CC(CC(Br)(C4)C2)C3)cc1	1	9	-0.6	-2
45	Cc1ccc(-c2nnc(NCc3nc4ccccc4[nH]3)c3ccccc23)cc1S(=O)(=O)N(C)C	-7	-3	11	-13
46	COC(=O)c1cnc2c(c1C(=O)OC)c(=O)n(C)c(=O)n2C	5	-4	0.0	-52
47	CC1CC(C)CN(CC(=O)N2CCCc3c2c(=O)oc2ccc(OCc4ccccc4)cc32)C1 (configuration not stated)	-2	6	-4.8	-11
48	COC(=O)C1=C(C)NC(=O)NC1c1ccc2ccccc2c1 (configuration not stated)	3	1	0.2	-13
49	O=c1c2ccccc2nnn1CSc1ccc2c(c1)OCCO2	6	4	5.4	-87
50	Cc1cccc(-n2c(O)c(/C=N/NC(=O)c3ccncc3)c(=O)[nH]c2=O)c1	12	7	0.6	/

entry	ugtP null kill	Autofluor counter	BJeLR lethal
41	0	?	-6
42	7	3707	1
43	8	3358	-5
44	7	6180	-4
45	-16	7605	-11
46	3	2569	0
47	-27	3315	1
48	2	3936	-6
49	4	3580	-1
50	8	3241	-4

# New compounds follow:
entry	SMILES	Mtb hypoxia inh	Mtb hypoxia inh growth	Sa RN4220 lethal	PrP 5UTR inh
51	O=C(NCC(=O)N1CCN(c2ccc(C(F)(F)F)cn2)CC1)c1ccc(Br)o1	-8	-2	-2.3	-21
52	Cc1nc(SCc2cccc(F)c2)[nH]c(=O)c1C#N	15	7	9.4	-2
53	CC(=O)Nc1ccc(S(=O)(=O)NNC(=O)NC23CC4CC(CC(C4)C2)C3)cc1	3	-1	0.8	5
54	COc1cc(/C=C2\SC(=Nc3ccccc3)NC2=O)cc(Cl)c1O	1	2	4.3	-22
55	Nc1nnc(SCc2cn3cc(Cl)ccc3n2)s1	-10	5	0.0	-42
56	CN(CC(=O)Nc1ccc(F)cc1)C(=O)CN1C(=O)c2cccc([N+](=O)[O-])c2C1=O	7	1	6.0	-8
57	COc1ccc(Cl)cc1NC(=O)CN1c2ccccc2CC1C (configuration not stated)	16	7	3.3	-60
58	COc1ccc2[nH]c3c(c2c1)CCN1C(=O)C(CC(=O)NCc2ccco2)C[C@H](C(=O)N2CCOCC2)[C@@]31CCC1CCCC1 (some centres not stated)	-10	-8	1.3	-12
59	Cc1ccc2nc(-c3ccncc3)cc(C(=O)N3CCC4(CC3)OCCO4)c2c1	/	/	0.9	-25
60	Cc1cccc(OCC(O)Cn2c(NCCCOC(C)C)nc3c2c(=O)[nH]c(=O)n3C)c1 (configuration not stated)	/	/	3.6	-10

entry	ugtP null kill	Autofluor counter	BJeLR lethal
51	7	3601	/
52	10	22061*	6
53	-5	4361	-13
54	-3	4783	5
55	-3	2077	5
56	4	/	/
57	-2	4608	/
58	-1	3737	/
59	-5	3663	-3
60	-1	4678	-4

# Later entries:
entry	SMILES	Mtb hypoxia inh	Mtb hypoxia inh growth	Sa RN4220 lethal	PrP 5UTR inh
61	Cc1ccc(S(=O)(=O)N(C)C)cc1NC(=O)COC(=O)CCC(=O)c1ccc(F)cc1	1	8	2.1	-8
62	COc1cc(/C=C2\CCOC2=O)cc(OC)c1OC	7	-2	5.5	-18
63	CC(Sc1ncnc2sccc12)C(=O)Nc1ccc(C(N)=O)cc1 (configuration not stated)	12	11	-1.3	-61
64	CCOc1ccccc1NC(=O)C(=O)NCCC1=CCCCC1	1	4	3.6	-11
65	COc1ccc(-c2nnn(Cc3ccccc3)n2)cc1OC	-2	-4	3.7	-18
66	Cc1ccc(/C=N/NC(=O)c2nnn(-c3nonc3N)c2CN(C)C)s1	/	/	/	-3
67	COc1ccc(OC2C(=O)N(Cc3ccc4c(c3)OCO4)C2c2sccc2C)cc1 (configuration not stated)	1	6	5.4	5
68	Nc1c(C(=O)OCC(=O)Nc2cccc([N+](=O)[O-])c2)[nH]c(=O)[nH]c1=O	5	16	0.2	-19
69	CCN(CC)c1ccc(CN2CC=C(c3ccc(F)cc3)CC2)cc1	3	1	-16	-14
70	Cc1nn2c3ccccc3n(CC(=O)c3cccs3)c2nc1=O	12	-13	1.3	-58
71	COc1cc(CN2CCN(c3cccc(Cl)c3)CC2)cc(OC)c1OC	4	2	7.9	-16
72	COc1cnn(-c2ccc(C)cc2)c(=O)c1SCc1ccccc1	7	6	2.7	-31
73	CC(C)NC(=S)Nc1ccc(S(=O)(=O)Nc2ncccn2)cc1	7	6	3.0	-18

entry	ugtP null kill	Autofluor counter	BJeLR lethal
61	1	1962	10
62	10	3968	3
63	5	4264	1
64	2	4690	-11
65	4	3933	0
66	/	4388	1
67	18	11373	10
68	2	3356	/
69	-26	3666	-1
70	10	4165	7
71	7	25470*	5
72	2	2836	2
73	11	7796	-2

# Screening data (PubChem BioAssay)
